GLA inh pH 4.5: alpha-galactosidase A (human) inhibition, pH 4.5; purified enzyme, 4-MU-alpha-Gal fluorescence, pH 4.5; activity change, negative = inhibition, % at 105 µM; 230,000 tested, under 10 active; AID 1467; inconclusive = small, poorly fitted or top-dose-only inhibition, or a rising curve; inactive = flat fitted curve, though single readings scatter; no compound was filed as active;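 further: 0% = full activity with enzyme and -100% = basal without enzyme; dose as in the result columns while the protocol names 77 µM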
Target sequence (P06280 whole entry, looked up): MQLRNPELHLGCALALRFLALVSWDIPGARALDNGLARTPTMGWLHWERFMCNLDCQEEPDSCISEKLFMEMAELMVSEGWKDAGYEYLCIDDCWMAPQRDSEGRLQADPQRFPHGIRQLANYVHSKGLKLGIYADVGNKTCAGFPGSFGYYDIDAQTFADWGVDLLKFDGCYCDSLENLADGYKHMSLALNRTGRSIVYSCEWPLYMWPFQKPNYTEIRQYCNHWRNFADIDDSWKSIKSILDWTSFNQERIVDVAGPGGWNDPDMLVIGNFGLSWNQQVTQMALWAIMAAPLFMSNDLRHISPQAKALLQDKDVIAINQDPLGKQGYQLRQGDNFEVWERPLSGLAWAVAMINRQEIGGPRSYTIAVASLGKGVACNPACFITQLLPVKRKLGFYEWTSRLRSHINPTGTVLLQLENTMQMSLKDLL
Rango complex inh: prevents formation of the Rango-importin beta complex | Rango CFP/YFP FRET sensor + importin beta, 45 min | Potency, µM (highest dose often 92.2 µM), for inactives: at the top dose inhibition of complex formation | Q14974 | 0.031% of 340,000 active | AID 540263; active = rising FRET ratio curve, often small or poorly fitted; inconclusive = mostly compound fluorescence or quenching in the first reads; inactive = flat curves in all reads;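 further: potency means the concentration at half of the fitted maximal effect; 0% = DMSO wells and 100% = buffer wells lacking importin beta; nearly all actives have a fitted effect of over 15% in size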
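FRET biosensor Rango (snurportin 1 IBB between N-terminal EYFP and C-terminal Cerulean), 50 nM in PBS/1 mM DTT/0.02% Tween-20/0.1% BSA, preincubated 5 min RT with compound; 0.125 microM importin beta added, 45 min RT, CFP/YFP FRET ratio read.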
Rango dissoc inh: prevents RanGTP from dissociating the Rango-importin beta complex; O95149+P62826; Biochemical FRET Rango-importin beta, RanGTP-induced dissociation; Potency, µM (highest dose often 46.1 µM), for inactives: at the highest dose activity change, negative = inhibition; 0.071% of 340,000 active; active means falling FRET ratio curve, often poorly fitted, with flat reads before Ran was added; inconclusive means other falling curves, or compound fluorescence or quenching; inactive means flat or rising ratio curve;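 further: potency means the concentration at half of the fitted maximal effect; % of control where 0% means no effect; nearly all actives have a fitted effect of over 45% in size; -100% = wells without RanGTP and RCC1; the record marks most hits as doubtful in a second field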
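Rango (0.1 uM)–importin beta (0.25 uM) complex; RanGTP-RCC1 trigger; 45 min RT; CFP/YFP FRET read.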
miR-21 reporter: raises the signal of a miR-21 reporter; Potency, µM (series often up to 38.3 µM), inactives show top-dose reporter change, positive = more light; HeLa miR-21 FLuc reporter, luciferase, 48 h; 340,000 tested, under 10 active; active = well fitted rising curve with a large enough effect; inconclusive = small, poorly fitted or top-dose-only effect; inactive = no such curve, though single readings can be large or run the other way;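 further: % of control where 0% means no effect; miR-21 action dims this reporter so a rising signal means less miR-21 action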
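Compounds were titrated across several concentrations (up to approximately 40 uM) and incubated 48 hours with HeLa miR-21-FLuc reporter cells (miR-21 target sequence downstream of FLuc, endogenous miR-21). Readout was firefly luciferase luminescence after lytic detection reagent.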
Numbers without * were called inactive; ? = inconclusive; · = no result given. Only part of the results is shown. The share of hits here may be higher or lower than overall.

GLA inh pH 4.5	Rango complex inh	Rango dissoc inh	miR-21 reporter	molecule
·	?	?	-6%	CCOC(=O)C1CCCN(C2=NC(=O)/C(=C/c3ccc(O)c(OCC)c3)S2)C1 (stereo not given)
-6	2.5%	-11%	2%	CCOC(=O)c1c(C)[nH]c(C(=O)COC(=O)/C=C/c2ccc(OCC#N)c(OC)c2)c1C
-3	-6.5%	-23%	-3%	CCOc1ccc(N=C(NC#N)SC)cc1
·	-3.8%	15%	·	O=C1CC2(CCN(C(=O)c3c(F)cccc3F)CC2)Oc2ccccc21
-2	?	-1%	-15%	CC(=O)Nc1ccc(S(=O)(=O)Nc2nccc(/C=C/c3ccccc3F)n2)cc1
1	1.4%	18%	-4%	O=C(COC(=O)C1(c2ccccc2F)CCCC1)NCc1cccs1
·	?	?	·	NC(=O)C1CCN(c2nc(-c3cc4ccccc4o3)cs2)CC1
1	-5.0%	-5%	4%	COc1ccc(Cc2nnc(N/N=C(\C)c3ccccc3)[nH]c2=O)cc1OC
·	-0.1%	-7%	·	Cc1ccccc1NC(=O)C(=O)NCC1CCCN1S(=O)(=O)c1cccs1 (stereo not given)
·	2.3%	?	·	COc1ccc(-c2csc(NCCc3nc4cc(C(=O)NCCCO)ccc4n3Cc3ccc(C)cc3)n2)cc1
-1	0.7%	2%	-15%	CCOC(=O)c1c(NC(=O)COC)sc(C)c1C
·	1.9%	3%	-2%	NC(=O)C1CCN(c2oc(/C=C/c3ccc(F)cc3)nc2S(=O)(=O)c2ccccc2)CC1
-4	0.4%	3%	-7%	O=C(c1ccc([N+](=O)[O-])cc1)N1CCN(c2cccc3[nH]ccc23)CC1
·	3.4%	1%	·	CCCCc1nnc(NC(=O)c2ccc3c(=O)n4c(nc3c2)CCC4)s1
-21	2.3%	-15%	-55%	COc1cc(/C=N/NC(=O)c2ccoc2C)ccc1O
-3	-0.1%	6%	-6%	COc1ccc(OC)c(C2=NOC(C(=O)NCc3ccccn3)C2)c1 (stereo not given)
·	-2.8%	10%	-17%	CCCc1cc(C(=O)NNC(=S)NC2CCCCC2)cs1
0	0.8%	19%	-4%	O=C(CSc1nnc2ccccn12)NCc1cccs1
2	-1.8%	6%	15%	CS(=O)(=O)N(CC(O)CON=C1c2ccccc2-c2ccccc21)c1ccc(F)cc1 (stereo not given)
-6	-1.3%	6%	-7%	C=CCn1c(SCc2cccc3ccccc23)nnc1-c1cccnc1
·	-1.2%	-9%	-4%	N#C/C=C/N1CCC(Cc2ccccc2)CC1
·	-0.3%	3%	·	CCOC(=O)c1oc2c(CN3CCN(C)CC3)c(O)c(CC)cc2c(=O)c1-c1nc2ccccc2s1
·	-4.8%	39%	0%	Clc1ccc(CN2CCN(c3ncccn3)CC2)cc1
·	-0.2%	-7%	8%	O=C1C2CCCN2C(=O)N1CCCN1CCN(c2ccc([N+](=O)[O-])cc2)CC1 (stereo not given)
-4	-2.0%	-6%	-2%	COc1cccc(C(=O)NC2CC3CCCC(C2)N3CC(=O)Nc2ccccc2)c1 (stereo not given)
·	0.5%	-4%	0%	COc1cc(NC(=O)c2ccccc2)c(OC)cc1NC(=O)Cc1ccc(C)cc1
-1	0.1%	18%	-42%	Cc1nc2ccc(NC(=O)c3ccco3)cc2nc1C
·	2.7%	11%	·	COc1ccc(C(=O)COC(=O)c2ccccn2)c(OC)c1
?	0.5%	1%	0%	N#CC1=C(N)Oc2c(O)cc3ccccc3c2C1c1ccsc1 (stereo not given)
1	?	-9%	-2%	COc1ccc2c(c1)NC(C)(C)C=C2C
-10	-1.6%	-12%	-6%	CCCN=C(N)/C(C(=O)OCC)=C(\O)c1ccc(OC)cc1
13	0.2%	-5%	6%	CC(C)CNC(=S)N1CCN(c2nc3ccccc3s2)CC1
·	-4.0%	-5%	·	O=C(C[C@H]1C[C@H](C(=O)N2CCCCC2)[C@@]2(CCc3ccccc3)c3[nH]c4ccc(Cl)cc4c3CCN2C1=O)NCc1cccc(C(F)(F)F)c1
·	-2.0%	16%	0%	COc1ccc(OC)c(NC(=O)CSc2nnc(CNC(=O)c3cccs3)o2)c1
-11	·	·	-11%	CCN(CC)S(=O)(=O)c1ccc(OC)c(NC(=S)Nc2cccc(C)c2)c1
·	-2.9%	1%	·	O=C(Nc1ccc(C(=O)N2CCCCC2)cc1)C1CC1
·	-2.7%	0%	9%	Cc1ccc(NC(=O)COc2ccc(C(=O)c3ccccc3)cc2)c(O)c1
1	3.3%	7%	-7%	O=c1c2[nH]c3ccccc3c2ncn1CCN1CCOCC1
·	-2.6%	-18%	·	COc1ccccc1C(=O)NC(=O)COC(=O)CN1C(=O)NC(C)(C)C1=O
·	4.7%	-8%	·	CCc1nnc(NC(=O)c2cc([N+](=O)[O-])ccc2N2CCOCC2)s1
-2	3.4%	-9%	-6%	CC1CC1C(=O)OCC(=O)Nc1ccccc1Oc1ccccc1 (stereo not given)
3	2.8%	13%	1%	CCOc1ccc(N2C(=O)CC(N)C2=O)cc1 (stereo not given)
-20	2.1%	-11%	12%	Cc1cc(C)cc(N(C(=O)c2ccccn2)C(C(=O)NC2CCCCC2)c2cccs2)c1 (stereo not given)
1	-1.3%	-10%	-8%	COC(=O)[C@@H](NC(=O)NC(C)CCc1ccccc1)C(C)C (stereo not given in full)
-3	?	-14%	-1%	CCN(CC(=O)N1CCN(C)CC1)S(=O)(=O)c1ccc(Cl)cc1
-15	-0.6%	9%	-55%	CC(C)(C)c1ccc(NC(=O)CSc2nnc(-c3n[nH]c4ccccc34)o2)cc1
5	-1.2%	0%	20%	CC(=O)NNC(=S)NC(=O)C(c1ccccc1)c1ccccc1
0	?	-11%	0%	Cc1ccc(N2NC(=O)/C(=C/c3ccc(-c4ccc(Cl)c(C(=O)O)c4)o3)C2=O)cc1
1	?	-7%	4%	Cc1ccc(-c2cc(C(F)F)n3ncc(C(=O)N4CCCCC4c4cccnc4)c3n2)cc1 (stereo not given)
2	0.6%	3%	-3%	C[C@@H]1NC(=O)[C@H](CC(N)=O)NC(=O)c2cc([N+](=O)[O-])cc(I)c2OCC[C@@H](C(=O)NC(CC(=O)O)C(N)=O)NC1=O (stereo not given in full)

Looked up above:
`N#CC1=C(N)Oc2c(O)cc3ccccc3c2C1c1ccsc1` (stereo not given) @ miR-21 reporter = 0%
`O=C(Nc1ccc(C(=O)N2CCCCC2)cc1)C1CC1` @ Rango dissoc inh = 1%

(list continues)
GLA inh pH 4.5	Rango complex inh	Rango dissoc inh	miR-21 reporter	molecule
·	-0.2%	0%	-1%	Cc1cc2[nH]c(=O)c(=O)[nH]c2cc1S(=O)(=O)NCc1ccc(Cl)cc1
-2	-0.7%	13%	-3%	CCCc1[nH]nc2c1C(c1ccc(OCCN3CCOCC3)c(OCC)c1)C(C#N)=C(N)O2 (stereo not given)
0	-4.9%	-12%	-3%	COc1ccc(CCC(C)Nc2ccc(F)cc2)cc1 (stereo not given)
-7	?	?	-24%	CN(C)c1ccc(C(=O)/C=C/c2ccc(Br)cc2)cc1
·	-2.6%	-13%	4%	CCOc1cccc(CN2CCC(Oc3ccc(C(=O)N4CCCC4)cc3)CC2)c1
·	6.8%	-6%	-1%	COc1ccc(NC(=S)NCc2ccccc2)c(OC)c1
1	2.1%	7%	-12%	Fc1ccc(-c2nnc(CSc3nnc(-c4ccc5c(c4)OCO5)o3)o2)cc1
7	-5.0%	0%	-14%	CCn1c(COc2ccccc2)nnc1SCC(=O)C(C)(C)C
-4	-2.7%	5%	-2%	COc1cc(NC(=O)C(=O)NNC(=O)C2CCCCC2)c(OC)cc1Cl
-1	0.5%	-6%	-1%	COc1ccccc1OCC(=O)NN1Cc2ccccc2C1=N

Complete entries, quoted from the list. Values in the order: GLA inh pH 4.5 | Rango complex inh | Rango dissoc inh | miR-21 reporter
Listed for `CCCc1[nH]nc2c1C(c1ccc(OCCN3CCOCC3)c(OCC)c1)C(C#N)=C(N)O2` (stereo not given) : -2 | -0.7% | 13% | -3%
Listed for `COc1ccc(CCC(C)Nc2ccc(F)cc2)cc1` (stereo not given) : 0 | -4.9% | -12% | -3%
Listed for `COc1ccccc1OCC(=O)NN1Cc2ccccc2C1=N` : -1 | 0.5% | -6% | -1%
Listed for `CN(C)c1ccc(C(=O)/C=C/c2ccc(Br)cc2)cc1` : -7 | ? | ? | -24%
Listed for `COc1ccc(NC(=S)NCc2ccccc2)c(OC)c1` : · | 6.8% | -6% | -1%

(continued)
GLA inh pH 4.5	Rango complex inh	Rango dissoc inh	miR-21 reporter	molecule
·	-2.4%	-12%	3%	COC(=O)c1cc(S(=O)(=O)N2CCN(C(=O)c3ccco3)CC2)cn1C
·	?	1%	-1%	COc1ccc(CNC(=O)c2cc3cccc(O)c3oc2=N)cc1
·	?	?	12%	COCCNC(=S)N1CCCN(c2nc3cc(C)ccc3cc2C#N)CC1
0	2.5%	0%	-58%	CCn1ccc(C(=O)Nc2ccccc2Cl)n1
·	-7.0%	0%	-6%	c1ccc(NC(c2ccccc2)c2ccncc2)cc1 (stereo not given)
·	-1.0%	-5%	0%	CCCCn1c(CCCNC(=O)c2ccco2)nc2ccccc21
·	3.3%	20%	-7%	CCN1CCN(CC(=O)Nc2nc3ccccc3s2)CC1
-5	-0.2%	-1%	-2%	O=C(O)C1CC(=O)N(c2ccc(OCc3ccccc3Cl)cc2)C1 (stereo not given)
4	5.2%	10%	-17%	CCc1cccc(NC(=O)CN2C(=O)NC3(CCCCCCC3)C2=O)c1
-8	-27%	?	2%	Cc1cccn2c(=O)c3cc(C(=O)NCc4ccco4)c(=N)n(CCOCCO)c3nc12
·	-0.1%	5%	0%	Cc1cc(C)c(CN2CCC(N3CCC(C(=O)NCC4CCCO4)CC3)CC2)cc1C (stereo not given)
1	4.9%	1%	-3%	COC(=O)Nc1nc(-c2cc(Cl)ccc2Cl)cs1
3	2.2%	8%	7%	Cc1ccc2c(c1)NC(=O)C(N1CCOCC1)(C(F)(F)F)O2 (stereo not given)
-13	6.1%	1%	14%	COc1ccc(CCNC(=O)CCSc2nc(-c3ccco3)cc(C(F)(F)F)n2)cc1OC
-2	-1.2%	2%	-6%	CCNc1ccccc1C(=O)O
-3	?	-16%	-7%	Cc1nn(-c2ccc(Cl)cc2)c2sc(C(=O)c3c(N)n(C)c(=O)n(C)c3=O)cc12
·	3.2%	?	·	O=C(CCN1C(=O)C2CC=CCC2C1=O)Nc1cc(C(F)(F)F)ccc1N1CCCC1 (stereo not given)
·	-1.5%	-6%	·	CC(C)CN(C(=O)COC(=O)C(C)N1C(=O)c2ccccc2C1=O)c1c(N)n(Cc2ccccc2)c(=O)[nH]c1=O (stereo not given)
-2	0.2%	1%	4%	COc1ccc(Cl)cc1NC(=S)NNC(=O)C1(C)CC1(Cl)Cl (stereo not given)
2	-0.4%	2%	-9%	C=CCO/N=C(\C)c1c(O)c(C)c(-c2ccccc2)n(-c2ccccc2)c1=O

As a short view, 2 of the compounds above:
GLA inh pH 4.5	Rango complex inh	Rango dissoc inh	miR-21 reporter	molecule
-2	0.2%	1%	4%	COc1ccc(Cl)cc1NC(=S)NNC(=O)C1(C)CC1(Cl)Cl (stereo not given)
2	-0.4%	2%	-9%	C=CCO/N=C(\C)c1c(O)c(C)c(-c2ccccc2)n(-c2ccccc2)c1=O

(listing goes on)
GLA inh pH 4.5	Rango complex inh	Rango dissoc inh	miR-21 reporter	molecule
-3	0.3%	2%	0%	O=C(CN1C(=O)C2CC=CCC2C1=O)NCC(=O)Nc1ccc(F)c(F)c1F (stereo not given)
-1	6.0%	17%	-42%	COc1cccc(/C=N/N2CCOCC2)c1O
·	-2.1%	2%	-1%	CC(=O)Nc1ccc(S(=O)(=O)Nc2cc(C)cn(Cc3ccccc3)c2=O)cc1
·	-3.5%	-9%	·	C[C@H]1CN([C@@H](C)CO)C(=O)Cc2cc(NS(C)(=O)=O)ccc2O[C@@H]1CN(C)CC1CC1
3	-0.6%	-6%	-4%	O=C(CN1C2=NCCN2c2ccccc21)c1ccc2c(c1)OCO2
2	?	-9%	-4%	Nc1nc(=S)c2ncn(C3OC(CO)C(O)C3O)c2[nH]1 (stereo not given)
3	·	·	-3%	O=C(c1cc2nc(-c3ccc(F)cc3)cc(C(F)(F)F)n2n1)N1CCCC1
2	-1.8%	-11%	-2%	Cc1ccc(NC(=O)COC(=O)C(CC(C)C)N2C(=O)C3CC=CCC3C2=O)c(C)c1 (stereo not given)
·	1.7%	-2%	-1%	CS(=O)(=O)Nc1ccccc1C(=O)NCC1(N2CCCCC2)CCCCC1
